Screens deposited in PubChem by Southern Research Institute.
Mtb H37Rv – Mycobacterium tuberculosis H37Rv growth inhibition, cell based, confirmatory dose response (AID 1949). most inactive calls were filed without a number and no value below 0 was filed. one-dose inhibition, % at 10 µg/mL; IC50 in µg/mL for titrated hits. 100,000 tested, 1.6% active;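 active = confirmed in a dose series; inconclusive = about 50% or more but not retested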;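 also: bacteria grown 7 days with compound before Alamar blue readout; 0% = untreated bacteria and 100% = reference antibiotic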
The depositor's hits bear a star; i = inactive; ? = inconclusive.

SMILES | Mtb H37Rv
Cc1ccc(S(=O)(=O)Nc2ccc(C(=O)NCCC(C)C)cc2)cc1 | i
CCn1c(CNC(=O)c2ccc(C)cc2)nnc1SCC(=O)Nc1ncc(C)s1 | i
COc1ccc(N2CCN(CC(O)COc3ccc(F)cc3)CC2)cc1 (stereo not given) | 1%
COc1ccccc1NC(=O)CN(Cc1ccc(Cl)cc1)S(C)(=O)=O | i
COc1ccc(C(=O)Oc2c(Sc3ccccc3)c(C)nn2C(C)(C)C)cc1 | i
O=C(O)CN(Cc1ccc(Br)cc1)S(=O)(=O)c1ccccc1 | i
Cc1cccc(C(CC(=O)N2CCCCC2)c2ccccc2)c1O (stereo not given) | i
COCCNS(=O)(=O)c1ccc(-c2ccc(C)cc2)cc1 | 0.49µg/mL*
Cc1ccc(C(O)c2nc3ccccc3n2C(C)C)cc1 (stereo not given) | i
Cc1ccccc1C(=O)NC(=S)Nc1sc2c(c1C#N)CCCC2 | i

Of the compounds above, 2 contain an aryl thioether with sulfur outside any ring:
SMILES | Mtb H37Rv
CCn1c(CNC(=O)c2ccc(C)cc2)nnc1SCC(=O)Nc1ncc(C)s1 | i
COc1ccc(C(=O)Oc2c(Sc3ccccc3)c(C)nn2C(C)(C)C)cc1 | i

Next structures follow.
SMILES | Mtb H37Rv
O=C(COc1ccc(C(=O)Nc2cc(Cl)ccc2Cl)cc1)Nc1cccc(C(F)(F)F)c1 | i
COc1ccc(NC(=O)Nc2ccc(C)cc2Br)c(OC)c1 | i
Cc1onc(-c2ccccc2Cl)c1C(=O)NC(=S)NCC1CCCO1 (stereo not given) | i
O=C(NC(=S)Nc1ccc2c3c(cccc13)CC2)c1ccco1 | 12%
CCOC(=O)c1sc(NC(=O)CSc2ccc(Cl)cc2)nc1C | i
CCn1c(SCC(=O)Nc2cc(Cl)ccc2Cl)nnc1-c1ccc(Cl)cc1Cl | i
Cc1cccc(CSc2nnc(Cc3cccc4ccccc34)n2C)c1 | i
Cc1cc(C)c(S(=O)(=O)Nc2ccc(Cl)cn2)cc1C | i
N#CC(C(=O)Nc1ccccn1)=C1CCCCCC1 | i
CCNCC(O)CN1CCC(C)CC1 (stereo not given) | i

Gathered by group: those above with an aryl methoxy group (4)
SMILES | Mtb H37Rv
COc1ccc(N2CCN(CC(O)COc3ccc(F)cc3)CC2)cc1 (stereo not given) | 1%
COc1ccccc1NC(=O)CN(Cc1ccc(Cl)cc1)S(C)(=O)=O | i
COc1ccc(C(=O)Oc2c(Sc3ccccc3)c(C)nn2C(C)(C)C)cc1 | i
COc1ccc(NC(=O)Nc2ccc(C)cc2Br)c(OC)c1 | i

(further entries)
SMILES | Mtb H37Rv
COc1ccc(N(CC(=O)Nc2cc(Cl)ccc2OC)S(C)(=O)=O)c(OC)c1 | i
O=C(Nc1sc2c(c1C(=O)NCc1ccco1)CCC2)c1ccco1 | i
Cc1cc(-c2cc(C(=O)O)c3ccccc3n2)cc(C)c1C | 7%
CC1=C(C(=O)Nc2ccccc2)C(c2cccc(Cl)c2Cl)NC(=S)N1 (stereo not given) | i
Cc1c(C(=O)NC(C)C(C)(C)C)oc2ccccc12 (stereo not given) | 9%
O=C(N1CCCCCC1)C12CC3CC(CC(C3)C1)C2 | i
COc1ccc2nc(/C(C#N)=C\c3ccc(C)o3)[nH]c2c1 | 12%
COc1ccc(S(=O)(=O)N(C)CC(=O)NCC2CCCO2)cc1Cl (stereo not given) | i
CCc1ccc(CNC(=O)C2CC(=O)N(c3ccc(OC)cc3)C2)cc1 (stereo not given) | i
NC(=O)COc1ccccc1C(=O)NC12CC3CC(CC(C3)C1)C2 | i
O=C(CC12CC3CC(CC(C3)C1)C2)Nc1ccc2c(c1)OCCO2 | 47%
CC(c1ccccc1)n1c(CCn2ncc3ccccc3c2=O)n[nH]c1=S (stereo not given) | i
COc1ccc(S(=O)(=O)CCc2nc3ccccc3s2)cc1 | i
Cc1cc(NC(=O)CCOc2ccccc2)no1 | i
CCOC(=O)c1cc2c(ccc3oc4c(c32)CCCC4)oc1=O | i
Cc1cccc(Nc2c([N+](=O)[O-])ccc3nonc23)c1 | i
CCN(CC)Cc1cc(C(=O)O)oc1C(C)(C)C | i
Cc1c(NC(=S)NC(=O)/C=C/c2ccccc2)cccc1-c1nc2ccccc2o1 | i
C=CCNC(=S)N(Cc1ccccc1F)C1CCS(=O)(=O)C1 (stereo not given) | i
COc1ccc(S(=O)(=O)N(CC(=O)Nc2ccc(NC(C)=O)cc2)c2ccc(Cl)cc2)cc1 | 2%
CCOC(=O)c1ccc(N2C(=O)CC(N3CCC(c4nc5ccccc5s4)CC3)C2=O)cc1 (stereo not given) | i
O=[N+]([O-])c1ccccc1S(=O)(=O)n1cccn1 | 2%
CCC(C)NS(=O)(=O)c1cccs1 (stereo not given) | i
CN1C(=O)c2ccc(NC(=O)c3ccc4c(c3)OCO4)cc2C1=O | i
O=C(COc1ccccc1Cl)Nc1ccccc1C(=O)Nc1ccccc1 | 0%
Cc1ccccc1OCC(=O)OCC(=O)c1ccc(Br)cc1 | i
Cc1ccc(SCC(=O)Nc2cccc(NC(=O)c3ccco3)c2)cc1 | i
Cc1cc(C(F)(F)F)nc(/N=C(\N)Nc2ccc(Cl)cc2)n1 | ?
O=[N+]([O-])c1ccc(S(=O)(=O)NCc2cccs2)cc1 | i
Nc1cc([N+](=O)[O-])ccc1Nc1ccccc1 | i
O=c1[nH]c(/C=C/c2ccsc2)nc(O)c1[N+](=O)[O-] | i
CN(c1ccc(C(F)(F)F)cc1[N+](=O)[O-])C1CCCCC1 | i
Cc1ccc(S(=O)(=O)Nc2ccccc2CNc2ccccn2)cc1 | 0%
O=C(NC1CCCCCC1)c1cc(Br)ccc1Cl | i
Cc1ccc(C)c(NC(=O)CSc2nnc(N)s2)c1 | i
O=C(CSc1nc(C(F)(F)F)cc(=O)[nH]1)Nc1ccc(Cl)c(Cl)c1 | i
CCOC(=O)c1ccc(NC(=O)COc2ccc(C(=O)Nc3cccc(C(F)(F)F)c3)cc2)cc1 | i
CCOc1ccc(S(=O)(=O)Nc2ccc(Br)c(C)c2)cc1 | 10%
CSc1nc2ccccc2n1-c1ccccc1 | i
O=C1CC(N2CCC(c3nc4ccccc4[nH]3)CC2)C(=O)N1c1ccc(C(F)(F)F)cc1 (stereo not given) | i
CCCCOC(=O)Nc1nnc(CSCc2ccc(Cl)cc2)s1 | i
CN1CCN(c2nc(NCC3CCCO3)c3ccccc3n2)CC1 (stereo not given) | i
O=C(COc1ccc(Br)cc1)Nc1ccc(N2CCN(C(=O)c3ccco3)CC2)cc1 | i
CSc1cccc(NC(=O)CN(c2ccc(I)cc2)S(C)(=O)=O)c1 | i
COc1ccc(-c2nc(NC(C)=O)sc2-c2ccccc2)cc1 | 7%
CCCc1ccc(OC(=O)c2ccco2)cc1 | 25%
CS(=O)(=O)N(CC(=O)Nc1cccc(Br)c1)c1ccc(F)c(Cl)c1 | i
COc1ccc(Br)cc1CN1CCC(N2CCCCCC2)CC1 | i
CCc1ccccc1NC(=O)CN(Cc1ccc(Cl)cc1)S(=O)(=O)c1ccccc1 | 1%
COC(=O)c1ccc2c(c1)NC(=O)CO2 | i

(list continues)
SMILES | Mtb H37Rv
NC(=O)C1CCCc2c1n(Cc1ccccc1)c1ccccc21 (stereo not given) | i
O=C(CCN1C(=O)c2cccc3cccc(c23)C1=O)Nc1nc(-c2ccccc2)cs1 | i
Cn1cnnc1SCc1ccc(Cl)cc1 | i
COc1ccc(CCC(N)=O)cc1OC | i
Cc1ccc(C(=O)Nc2sc3c(c2C(N)=O)CCCC3)cc1I | 2%
Cc1cccc(N2C(=O)CC(Sc3ccccc3N)C2=O)c1 (stereo not given) | 0%
Cc1cccc(C(=O)Nc2ccc(C(=O)N3CCCCC3)cc2)c1 | i
CCCOc1ccc(S(=O)(=O)N2CCN(c3ccc(CC)cc3)CC2)cc1 | i
O=C(Nc1ccccc1F)c1ccc(CN2CCN(c3ccccc3)CC2)cc1 | 3%
Cc1scc(C(=O)NNC(=S)NCCc2ccccc2)c1-c1ccccc1 | i
O=C(CN1CCN(c2ccccc2)CC1)Nc1cc(Cl)ccc1Cl | 1%
O=[N+]([O-])c1ccccc1CN1CCC(N2CCN(c3ccccc3)CC2)CC1 | 7%
O=C(CSC1=NC2CCCCC2N1)N1CCOCC1 (stereo not given) | i
COC(=O)CN(c1cc(Cl)c(Cl)cc1Cl)S(C)(=O)=O | i
O=C(c1cc2ncc(Br)cn2n1)N1CCN(Cc2ccc3c(c2)OCO3)CC1 | 2%
CSc1ccc(-c2nnn(CC(=O)O)n2)cc1 | i
CC1(C)Oc2ccc(NC(=O)Cc3ccc(F)cc3)cc2O1 | 1%
CCCNc1nc(-c2ccc(OC)cc2)nc2ccccc12 | ?
O=C(NC(=S)Nc1ncccc1O)c1ccccc1Br | i
C=CCNc1oc(-c2ccccc2F)nc1C#N | i
CS(=O)(=O)N(CC(=O)NC1CC1)c1ccc(F)cc1 | i
Cc1sc2nc(SCC(=O)N(C)C)n(C3CCCCC3)c(=O)c2c1C | i
CCCn1c(SCC(=O)Nc2ccc(OC)cc2)nnc1-c1ccccc1 | i
Nc1nnc(SCC(=O)N2CCN(C(c3ccccc3)c3ccccc3)CC2)n1-c1ccccc1 | i
Cc1ccc(CN2CC(C(=O)O)CC2=O)cc1 (stereo not given) | i
CN1CCN(C(=O)CN(C)S(=O)(=O)c2ccc3ccccc3c2)CC1 | i
CC(C)c1ccc(-c2cc(C(=O)O)[nH]n2)cc1 | i
CC1CCN(C(=O)c2ccc(Cl)c(F)c2F)CC1 | i
CC(=O)Nc1nc(CC(C)C)cc2c1c(=O)oc1ccccc12 | i
Cc1cc2oc(C(=O)Nc3ccccc3Cl)c(C)c2cc1C | 3%

4 of these compounds in a different format:
Cc1ccc(CN2CC(C(=O)O)CC2=O)cc1 (stereo not given)
  Mtb H37Rv: i
O=C(CC12CC3CC(CC(C3)C1)C2)Nc1ccc2c(c1)OCCO2
  Mtb H37Rv: 47%
COc1ccc(N(CC(=O)Nc2cc(Cl)ccc2OC)S(C)(=O)=O)c(OC)c1
  Mtb H37Rv: i
NC(=O)C1CCCc2c1n(Cc1ccccc1)c1ccccc21 (stereo not given)
  Mtb H37Rv: i

Next part
SMILES | Mtb H37Rv
CC(C)(C)NS(=O)(=O)c1ccc(NC(=O)c2ccccc2I)cc1 | i
CCOc1cc(-c2conc2N)cc(OCC)c1OCC | 5%
O=C(CN1CCN(Cc2ccccc2)CC1)Nc1ccc(Cl)cn1 | i
COc1ccc(C(=O)NCc2nnc(SCC(=O)NCc3ccccc3)n2-c2ccccc2)cc1 | i
Cc1cc(C(=O)NCc2cccc(Cl)c2)cs1 | 3%
COc1ccc(S(=O)(=O)N2CCOCC2)c(Cl)c1Cl | i
Cc1cc(OCc2nnc(N)s2)cc(C)c1Cl | i
CCc1cccc(C)c1NC(=O)CN(c1cccc(OC)c1)S(C)(=O)=O | i
O=C(Cc1ccccc1)Nc1cc(C(F)(F)F)ccc1N1CCCC1 | 1%
Cc1ccc(Cl)cc1N(CC(=O)N1CCN(c2ccccc2)CC1)S(C)(=O)=O | i

A run of entries taken from the entries so far:
SMILES | Mtb H37Rv
COc1ccc(S(=O)(=O)N2CCOCC2)c(Cl)c1Cl | i
Cc1cc(OCc2nnc(N)s2)cc(C)c1Cl | i

(continued)
SMILES | Mtb H37Rv
Cn1c(SCc2ccccc2C#N)nnc1-c1ccncc1 | i
COc1ccc(Cl)cc1NC(=O)CCc1ccc(S(=O)(=O)NCC(C)C)cc1 | i
CCc1ccc(OCC(=O)Nc2ccc([N+](=O)[O-])cc2)c(Br)c1 | 4%
CCOc1ccc(S(=O)(=O)Nc2cccc3c([N+](=O)[O-])cccc23)cc1 | i
CCOC(=O)N1CCN(S(=O)(=O)c2ccc(Br)s2)CC1 | i
Brc1ccc2ncnc(NCCCN3CCOCC3)c2c1 | i
COc1ccc(Cl)cc1NC(=O)CSCc1cc(C)cc(C)c1 | 0%
CC(Oc1ccccc1)C(=O)Nc1cccc(-c2nc3ccccc3s2)c1 (stereo not given) | i
COC(=O)C1=C(C)NC2=C(C(=O)CCC2)C1c1ccc(F)cc1 (stereo not given) | i
O=C1CC(C(=O)Nc2c(Cl)cccc2Cl)C2(CCCCC2)O1 (stereo not given) | i
O=C(COc1ccc(-c2ccccc2)cc1)Nc1nc2ccc([N+](=O)[O-])cc2s1 | i
COc1cc(NC(=O)c2sc3cc(Cl)ccc3c2Cl)c(OC)cc1Cl | i
Cc1cc2c(cc1C)NC(CC(=O)Nc1ccc(N(C)C)cc1)C(=O)N2 (stereo not given) | i
O=C(CSc1nnnn1-c1cccc2ccccc12)Nc1ccccc1 | i
CCCOc1ccc(C(=O)Nc2ccc(OC)cc2OC)cc1 | 4%
CC(C)c1nnc(NC(=O)CC(C)(C)C)s1 | i
COc1ccc(CCNC(=O)COc2cc(C)cc(C)c2C)cc1 | 1%
COC(=O)Nc1ncc(CN2CCCC2)s1 | i
O=C1C2CC=CCC2C(=O)N1CC1CCCO1 (stereo not given) | i
CCN1C(=O)C(O)(CC(=O)c2ccc(-n3cccc3)cc2)c2ccccc21 (stereo not given) | i
COc1cc(C2C(C#N)=C(C)NC3=C2C(=O)CC(c2ccc(Cl)cc2)C3)ccc1OC(C)=O (stereo not given) | i
CC(C)(C)C(=O)Nc1ccc2c(c1)-c1cc(NC(=O)C(C)(C)C)ccc1C2 | i
COCCNC(=S)Nc1ccc(Cl)cc1Cl | i
CS(=O)(=O)N1CCN(c2ccccc2NC(=O)c2ccc(Br)o2)CC1 | i
COc1ccc(C2(CN)CCCC2)cc1 | i
Cc1ccc(-c2csc3ncn(CC(=O)Nc4ccccc4)c(=O)c23)cc1C | i
Cc1cc(Br)ccc1OCC(=O)NC1CCCC1 | i
COc1ccc(-c2csc(NC(=S)NC(=O)c3ccc(C(C)C)cc3)n2)cc1 | i
O=C(Nc1cccc(NC(=O)C(F)(F)F)n1)C(F)(F)F | 1%
NC(=O)C(Cc1ccccc1)NC(=O)Cc1ccc(F)cc1 (stereo not given) | 1%
Cc1ccc(C(CC(=O)O)c2ccco2)cc1 (stereo not given) | i
COc1cc(Cl)c(C)cc1NC(=O)c1cccc(OC)c1OC | 17%

Not all compounds are listed; rates above refer to the full screens.
